Bioassay records (PubChem BioAssay)
VACV mCherry inh: inhibitors of vaccinia virus infection (mCherry reporter signal). Potency, µM (highest dose often 36.5 µM), for inactives: top-dose activity change, negative = inhibition, most hits filed as inhibitors. Vaccinia virus mCherry reporter infection, fluorescence; about a quarter of the inactives have no number. 310,000 compounds, 0.63% hits; active = well fitted inhibition curve with a large enough effect; inconclusive = small, poorly fitted or top-dose-only effect; inactive = no such curve, though single readings can be large or run the other way; tested in A549 cells; also: nearly all actives have a fitted effect of over 35% in size; inactives centre near -10
Vaccinia Venus: vaccinia inhibition (Venus reporter); 330,000 compounds, 0.46% hits; Vaccinia virus Venus reporter expression, fluorescence; Potency, µM (highest dose often 36.5 µM), inactives show at the highest dose activity change, negative = inhibition, hits mostly inhibitors; AID 720580; active means well fitted inhibition curve with a large enough effect; inconclusive means small, poorly fitted or top-dose-only effect; inactive means no such curve, though single readings can be large or run the other way; tested in A549 cells; also: nearly all actives have a fitted effect of over 30% in size; inactives centre near -10
Starred values were filed as active, the others as inactive; i = inactive; u = inconclusive; x = no result given; [ ] = remark or other dose. % is scaled to controls: 0 for no effect and ±100 for the full control effect; potency is read from the fitted curve at half-maximal effect.

Results follow in this order: VACV mCherry inh, Vaccinia Venus
1: COC(=O)c1ccc(CNC(=O)CSc2nc3ccccc3[nH]2)cc1
    i, -2%
2: Cc1cccc(C(=O)Nc2nnc(S(=O)(=O)N3CCCCCC3)s2)c1
    i, -9%
3: CCC(=O)Oc1ccc(C(=O)Nc2c[nH]c(=O)[nH]c2=O)cc1
    i, -6%
4: C#CCSc1nc2ccccc2n1C(=O)c1ccc(S(=O)(=O)N2CCCCC2)cc1
    -6%, -9%
5: Cc1ccc(O)c(C(CC(=O)NCc2cccnc2)c2ccccc2)c1 (stereo not given)
    7%, 2%
6: Cc1cc(C)nc(CC(N)=O)n1
    x, -16%
7: COc1cc2c(C#N)c(N3CCCCC3)nc(N)c2c(N)n1
    u, u
8: CCOC(=O)c1cnc2c(Cl)c(Cl)ccc2c1Nc1ccc(N(C)C)cc1
    2%, 7%
9: COc1cc(C(=O)Nc2nc(-c3cc(C)ccc3C)c(C)s2)ccc1OCC(=O)Nc1ccc(F)cc1
    i, -14%
10: CSc1nsc(SC)c1C(=O)O
    -10%, -4%

An excerpt of these results, tab-delimited:
entry	SMILES	VACV mCherry inh	Vaccinia Venus
1	COC(=O)c1ccc(CNC(=O)CSc2nc3ccccc3[nH]2)cc1	i	-2%
7	COc1cc2c(C#N)c(N3CCCCC3)nc(N)c2c(N)n1	u	u
9	COc1cc(C(=O)Nc2nc(-c3cc(C)ccc3C)c(C)s2)ccc1OCC(=O)Nc1ccc(F)cc1	i	-14%
2	Cc1cccc(C(=O)Nc2nnc(S(=O)(=O)N3CCCCCC3)s2)c1	i	-9%
3	CCC(=O)Oc1ccc(C(=O)Nc2c[nH]c(=O)[nH]c2=O)cc1	i	-6%
8	CCOC(=O)c1cnc2c(Cl)c(Cl)ccc2c1Nc1ccc(N(C)C)cc1	2%	7%
6	Cc1cc(C)nc(CC(N)=O)n1	x	-16%

Carrying on.
Results follow in this order: VACV mCherry inh, Vaccinia Venus
11: COC(=O)Cc1ccc(NC(=S)N2CCCC(C)C2)cc1 (stereo not given)
    i, 2%
12: CCC1CC2(C)NC(=O)c3c(sc4c3CC(C)(C)OC4)N2C1=O (stereo not given)
    -16%, -8%
13: Cc1ccc(Cl)cc1N1CCN(C(=O)c2c(C)oc3ncnc(N4CCOCC4)c23)CC1
    -22%, -11%
14: COc1ccc(CN2C(=O)c3cccnc3C2Nc2cc(Cl)c(OC)cc2OC)cc1 (stereo not given)
    u, -10%
15: CCOC(=O)c1ccc(Cl)c(NC(=O)c2ccc(-c3ccccc3)cc2)c1
    -9%, -12%
16: CCN(C(=O)CN1CCCCC1)C1(C)C(=O)c2ccccc2C1=O
    i, 2%
17: CCOc1ccc2c(c1)c(=O)c(C(=O)c1ccccc1)cn2Cc1ccccc1
    -16%, -8%
18: COc1cc(CNC[C@H]2O[C@@H](n3ccc(N)nc3=O)[C@H](O)[C@@H]2O)ccc1OCc1ccc(C)cc1
    i, -8%
19: CC1(C)CC(=O)C2=C(C1)OC(N)=C(C#N)C2C1C=CCCC1 (stereo not given)
    x, -24%
20: Cn1ncc2c(NNC(=O)c3ccc(Cl)cc3Cl)ncnc21
    -8%, -19%
21: O=C(NCc1ccco1)c1cccc2c1C(=O)N(C1CCCCC1)C2
    -13%, -3%
22: CN(C)C(=O)C(=O)c1cccn1-c1cccc(Cl)c1C#N
    i, -17%
23: Cc1ccc(S(=O)(=O)NCCCC(=O)N2CCC(C)CC2)cc1
    -15%, -7%
24: Cc1ccc(-c2nnn(CC(=O)N(CC(=O)NC3CCCC3)c3cccc(F)c3)n2)o1
    -5%, 14%
25: COc1ccccc1[C@@H]1C(c2ccccc2)=NN(c2ccccc2)[C@H]1C(=O)N1CCOC1=O
    -9%, -21%
26: COc1cc2c3nc4n(c(=O)c3n(CC(=O)NCC3CCCO3)c2cc1OC)CCS4 (stereo not given)
    i, -10%
27: CCN1C(=O)[C@H]2[C@@H](c3ccc(-c4ccccc4)cc3)N[C@@](C)(C(=O)OC)[C@H]2C1=O
    i, -3%
28: Nc1ccc(/C=C/C(=O)c2cccs2)cc1
    -20%, -4%
29: CC1=C(C(=O)Nc2ccccn2)C(c2cccnc2)n2nnnc2N1 (stereo not given)
    0%, -2%
30: CCN(Cc1ccccc1)c1ccc(N=Nc2nn(C)c(C)c2[N+](=O)[O-])cc1
    -18%, -26%

Of the compounds above, these contain a furan ring, fused or not:
Results follow in this order: VACV mCherry inh, Vaccinia Venus
13: Cc1ccc(Cl)cc1N1CCN(C(=O)c2c(C)oc3ncnc(N4CCOCC4)c23)CC1
    -22%, -11%
21: O=C(NCc1ccco1)c1cccc2c1C(=O)N(C1CCCCC1)C2
    -13%, -3%
24: Cc1ccc(-c2nnn(CC(=O)N(CC(=O)NC3CCCC3)c3cccc(F)c3)n2)o1
    -5%, 14%

Carrying on.
Results follow in this order: VACV mCherry inh, Vaccinia Venus
31: CCCCCCCCN1C(=O)[C@H](CC(=O)N2CCN(C(=O)c3ccco3)CC2)C[C@@]2(C(=O)OC)CC(C)(C)CC=C12
    4%, -25%
32: CC(C)CCNC(=O)C1CCC(CNc2c(N3CCC(C)CC3)c(=O)c2=O)CC1 (stereo not given)
    8%, -6%
33: O=c1cc(-c2ccc(Cl)c(Cl)c2)[nH][nH]1
    x, -13%
34: Cc1ccc(N2C(=O)C3C4C=CC(CC4)C3C2=O)cc1Br (stereo not given)
    i, 12%
35: COc1cc(C(=O)NC(=S)Nc2csc(-c3ccc(F)cc3)n2)cc(OC)c1OC
    -15%, -21%
36: COc1ccc(-c2csc(NC(=O)c3ccc(S(=O)(=O)N4CCc5ccccc5C4)cc3)n2)cc1
    -20%, -17%
37: Cc1cccc(OCC(=O)Nc2ccc3c(c2)nc2n3CCOC2)c1
    -4%, -10%
38: O=c1cc(CN2CCN(c3ccccc3F)CC2)c2c(ccc3ccccc32)o1
    i, -8%
39: COc1ccc(C(=O)CNc2ccccc2Br)cc1
    i, -7%
40: CC(C)C(NC(=O)c1ccccc1NC(=O)c1ccccc1)C(=O)NNC(=O)c1ccncc1 (stereo not given)
    -7%[7.34 µM], 7%[7.34 µM]
41: O=C(c1ccccc1)c1ccc2c(c1)OCCCO2
    i, -7%
42: CCN1CCCC1CN(Cc1cc2cc(C)cc(C)c2[nH]c1=O)C(=O)Nc1ccccc1OC (stereo not given)
    -14%, -17%
43: CCOC(=O)c1cc(S(=O)(=O)N2CCN(c3ccccc3)CC2)[nH]n1
    -5%, -7%
44: NNC(=O)c1ccc2c(c1)S(=O)(=O)NNC2=O
    -1%, -4%
45: c1ccc(-c2ccccc2OCCN2CCCCC2)cc1
    -24%, -14%
46: CCCN(CCC(=O)Nc1ccccc1F)CC1CC1
    x, -15%
47: CCOC(=O)c1c(N)n(-c2cc(C)cc(C)c2)c2nc3ccccc3nc12
    -5%, 0%
48: Cc1cc(C)cc(OCCNC(=O)CCc2ccccc2)c1
    -14%, -6%
49: COC(CN(C(=O)CCl)C(C(=O)NC1CCCCC1)c1ccc(Cl)cc1)OC (stereo not given)
    i, -13%
50: O=C1C2CC=CCC2C(=O)N1c1ncn[nH]1 (stereo not given)
    -15%, -9%
51: CCNc1nc(C23CC4CC(CC(C4)C2)C3)cs1
    -19%, -20%
52: O=C(NCCC1=CCCCC1)c1ccc2c(c1)N(Cc1ccc(Cl)cc1)C(=O)c1ccccc1S2=O (stereo not given)
    u, u
53: CCCCNC(=O)c1ccc2c(c1)S(=O)(=O)c1ccccc1C2=O
    i, -14%
54: Cc1ccnc(NC(=O)c2cc3ccccc3oc2=O)c1
    i, -3%
55: COC(=O)Cc1c(C(=O)OC)nnn1-c1ccc(OC)cc1
    -23%, -4%
56: COC(=O)CC1Oc2ccccc2-n2cc(-c3ccc(F)cc3)nc21 (stereo not given)
    -12%, -6%
57: O=S1(=O)CCOC[C@H](Cc2ccccc2)N1Cc1cccc(C(F)(F)F)c1
    -5%, -27%
58: CS(=O)(=O)c1cnc(-c2ccccc2)nc1-c1ccccc1Cl
    -29%, -16%
59: Cc1ccc(OCC(=O)Nc2ccc(NC(=O)c3ccco3)cc2)c(C)c1
    u, u
60: CCCCn1c(N)nc2ccccc21
    -3%, -6%
61: Cc1ccc(NC(=O)CSCC(=O)N2CCN(Cc3ccc4c(c3)OCO4)CC2)cc1
    i, -17%
62: N#CSCC(=O)c1cccc2ccccc12
    -15%, -7%
63: Cc1ccc(N(CC(=O)Nc2ccc(F)cc2F)S(=O)(=O)c2cccs2)cc1
    -6%, -6%
64: Cn1c(=O)c2c(-c3ccccc3)n(CCCO)cc2n(C)c1=O
    -8%, -1%
65: O=C1[C@@H](Oc2ccccc2)[C@@H](c2ccncc2)N1c1ccncc1
    i, -10%
66: CCCc1cc(=O)[nH]c(SCC(=O)c2cc(C)n(CC(F)(F)F)c2C)n1
    -12%, -11%
67: CCC(C)CN1C(=O)CSCC1(C)C(=O)Nc1ccc2c(c1)OCCO2 (stereo not given)
    -20%, -10%
68: Nc1ccc(Br)c2c1C(=O)c1ccccc1C2=O
    26%, 47%[activator]
69: COC(=O)c1ccc2c(=O)n3c(nc2c1)SCC(c1ccccc1)=N3
    i, -14%
70: Cn1nc(-c2ccccc2F)c2cc(C(=O)N3CCN(C(=O)c4ccco4)CC3)sc21
    u, -27%
71: Cc1ccc(N(C(=O)c2ccc(S(=O)(=O)N3CCOCC3)cc2)C2C=CS(=O)(=O)C2)cc1 (stereo not given)
    -16%, -4%
72: COc1ccc2sc(-c3ccc(S(C)(=O)=O)cc3)c(-c3ccc(C(N)=O)cc3)c2c1
    i, u
73: COC(=O)c1ccc(CN(c2ccccc2Cl)S(C)(=O)=O)cc1
    -18%, 1%
74: COc1ccc(CCCNC(=O)C2(C)Cc3c(-c4ccc5c(c4)OCO5)ccnc3O2)cc1 (stereo not given)
    u, u
75: COc1ccc2nc3cc(Cl)ccc3c(C#N)c2c1
    -22%, -4%
76: Cc1cccc(C)c1Nc1c(-c2ccc(O)cc2)nc2sccn12
    -17%, -12%
77: OCCC1CN(Cc2ccccn2)CCN1C1CCCC1 (stereo not given)
    -28%, -3%
78: CN(CC(=O)Nc1ccc(OC(F)(F)F)cc1)C(=O)c1ccccc1SCC(=O)N1CCCC1
    -3%, -6%
79: COc1ccc(CN2C(=O)c3ccccc3C2c2nnnn2-c2c(C)cccc2C)cc1OC (stereo not given)
    1%, -9%
80: NC(C(=O)O)c1cc(O)cc(O)c1 (stereo not given)
    i, -10%

Going on with the list:
Results follow in this order: VACV mCherry inh, Vaccinia Venus
81: CNC(=S)N1N=C(c2ccccc2)CC1c1ccccc1Cl (stereo not given)
    i, -3%
82: N#Cc1ccccc1OCC(=O)Nc1ccc(S(=O)(=O)N2CCOCC2)cc1
    i, -9%
83: O=C(CN1CCN(Cc2ccc(F)cc2Cl)C1=O)NCCc1ccccc1
    u, u
84: O=S(=O)(Nc1nc2n(n1)C(c1ccc(F)cc1)C=C(c1ccccc1)N2)c1ccc(Cl)cc1 (stereo not given)
    -4%, -3%
85: O=C(NC(=O)N1CCN(C(c2ccccc2)c2ccccc2)CC1)c1ccccc1
    -4%, -18%
86: C/C(=N/NC(=O)c1ccccn1)c1ccco1
    -23%, -4%
87: C=CCn1c(SCn2nnc3ccccc3c2=O)nnc1C1CCCCC1
    x, -20%
88: COc1ccc(CNCC(O)(c2ccccc2)c2ccccc2)cc1OC
    i, -18%
89: COc1ccc(-n2nnnc2SCC(=O)N2C(C)CCCC2C)c(OC)c1 (stereo not given)
    0%, -13%
90: C=CCn1c(SCC(=O)Nc2cc(C)on2)nc2c([nH]c3ccccc32)c1=O
    -23%, -26%
91: O=C(NC1CCCCC1)C(c1ccco1)N(Cc1ccco1)C(=O)c1ccco1 (stereo not given)
    -5%, -8%
92: Cc1ccc2c(Cl)c(C(=O)Nc3ccc4c(c3)OCO4)sc2c1
    -10%, 4%
93: CCC1NC(=O)c2cccnc2-n2c1nc1ccc(F)cc1c2=O (stereo not given)
    -4%, -10%
94: O=C(O)c1ccccc1NS(=O)(=O)c1ccc2c(c1)OCCO2
    -21%, -11%
95: COc1ccc(-c2c(C)nn3c(C(F)(F)F)cc(-c4ccccc4)nc23)cc1OC
    -11%, -13%
96: Cn1c(=O)n(C)c2cc(CNCc3ccc(C(=O)O)cc3)ccc21
    6%, -3%
97: Cc1ccc(O)c(C(=O)c2cnc3c(c2)c(C)nn3C)c1
    -10%, -5%
98: Cc1cccc(N(C)S(=O)(=O)c2c(C)[nH]c(C)c2C(=O)N2CCCC2)c1
    -9%, 2%
99: COc1ccc(C(CNc2ccc(S(=O)(=O)N3CCCC3)cc2[N+](=O)[O-])N2CCCC2)cc1 (stereo not given)
    -15%, -10%
100: CC(=O)Nc1sc(/C(C#N)=C\c2cccc(Cl)c2)nc1-c1ccc(C)cc1
    35%[activator], 94%[activator]
101: N#CCCNCC1(c2ccccc2)CCCC1
    x, -12%
102: CC1(C)Cc2nc(-c3ccccc3)nc(NNC(=O)c3ccco3)c2CO1
    -8%, -9%
103: O=C(NCc1ccncc1)Nc1ccc(Cl)cc1Cl
    -9%, -5%
104: Cc1cc(N/N=C\c2ccccc2)nc(-c2ccccc2O)n1
    u, -25%
105: O=C(NCCCCc1ccccc1)c1ccc(F)cc1
    -3%, -11%
106: COc1ccc(-c2nc(N)sc2C2(O)C(=O)Nc3c(Br)cc(F)cc32)cc1OC (stereo not given)
    u, 0%
107: COc1ccc(N2C(=O)CC(Sc3n[nH]c(-c4cccc(C)c4)n3)C2=O)cc1 (stereo not given)
    i, -15%
108: COCCCN1C(=O)C(CC(=O)NCCN2CCOCC2)CC(C(=O)N(C)C)=C1C (stereo not given)
    4%, -6%
109: S=C(NCCc1ccccc1)N/N=C/c1c(Cl)cccc1Cl
    -18%, -2%
110: COc1ccc(CCNC(=O)CN2C(=O)NC3(CCOc4ccccc43)C2=O)cc1 (stereo not given)
    -15%, -16%
